VDR inh = vitamin D3 receptor (human) inhibition | P11473 | VDR-SRC2-3 peptide fluorescence polarization, 2 h | Potency, µM, for the others: max response, negative = inhibition, hits mostly inhibitors | hit rate 0.93% among 400,000 | AID 504847; active = well fitted inhibition curve with a large enough effect; inconclusive = small, poorly fitted or top-dose-only effect, or another doubt; inactive = no such curve, though single readings can be large or run the other way; note: series mostly up to about 120 µM
Target sequence (P11473 whole entry, looked up): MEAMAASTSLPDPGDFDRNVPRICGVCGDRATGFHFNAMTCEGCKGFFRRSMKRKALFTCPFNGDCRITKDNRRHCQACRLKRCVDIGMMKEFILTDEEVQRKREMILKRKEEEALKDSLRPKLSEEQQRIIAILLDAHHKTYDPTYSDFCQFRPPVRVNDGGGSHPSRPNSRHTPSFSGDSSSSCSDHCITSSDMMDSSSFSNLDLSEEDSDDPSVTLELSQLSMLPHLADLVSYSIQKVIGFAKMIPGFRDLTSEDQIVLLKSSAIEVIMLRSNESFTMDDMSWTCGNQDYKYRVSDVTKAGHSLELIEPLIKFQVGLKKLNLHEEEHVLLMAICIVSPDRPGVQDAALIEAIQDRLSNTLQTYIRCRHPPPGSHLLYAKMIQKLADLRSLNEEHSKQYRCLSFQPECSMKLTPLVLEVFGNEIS
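Reagent solutions, kept cold and dark, are dispensed first; compounds are then pinned in at 23 nl, plates briefly spun, and incubated 2 h at ambient temperature. Inhibition of VDR–SRC2-3 peptide binding is read by fluorescence polarization.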
* marks the source's active call; other numbers are inactive results; ? = inconclusive; & = joins results of further samples; [ ] = dose if it differs, or a comment. % is set by controls: 0 for no effect and ±100 for the full control effect; potency is the fitted concentration of half-maximal effect. The list is partial, so the mix of outcomes need not match the whole.

SMILES | VDR inh
Cc1c(C(=O)Nc2ccccc2Cl)oc2ccc(S(=O)(=O)N3CCC4(CC3)OCCO4)cc12 | 1%
Fc1ccc(-c2nc(Nc3cccc(C(F)(F)F)c3)nc3c2COc2ccccc2-3)cc1 | 6%
FC(F)(F)c1ccc(-c2cccc3c2C2CC3CCN2Cc2ccccc2)cc1 (configuration not stated) | 5%
FC(F)(F)c1cc(C(F)(F)F)n2nc(-c3sccc3-n3cccc3)cc2n1 | 11%
O=C(Nc1ccc(N2CCOCC2)cc1)c1ccc(S(=O)(=O)NCc2ccco2)cc1 | 11%
NNC(=O)c1ccc(Cn2cc(Br)cn2)o1 | 1%
COc1ccccc1N1CCN(C(=O)c2ccc3c(c2)N(Cc2cc(C)ccc2C)C(=O)c2ccccc2S3(=O)=O)CC1 | -1%
CC(=O)c1c(C)[nH]c(C(=O)COC(=O)CCCOc2ccccc2)c1C | 11%
COc1ccc(CNC(=O)Cn2nc(Cc3cccnc3)c3ccccc3c2=O)cc1 | -6%
COc1cc2c(cc1OC)C(C)N(C(=O)c1c(C)noc1C)CC2 (configuration not stated) | -7%
O=C(Nc1ccc(Oc2ccc(S(=O)(=O)N3CCOCC3)cn2)cc1)c1ccco1 | -1%
CC(=O)c1cc(-c2ccccc2)n(CC(=O)N2CCC(C)CC2)c1C | 0%
COc1ccc(C(C)C)cc1S(=O)(=O)N1CCC(C(=O)NCC2CCCO2)CC1 (configuration not stated) | 10%
CCOC(=O)c1cc(-c2ccc(C)cc2)n(CCC(=O)NCCN(C)C)c1C | -1%
O=C(c1ccccc1NS(=O)(=O)c1ccc(F)cc1)N1CCCC1 | 9%
COc1ccc(NC(=O)C2=NN(C3CCS(=O)(=O)C3)C(=O)CC2)cc1S(N)(=O)=O (configuration not stated) | -12%
COc1cccc(C2CC(=O)N3CN(c4ccccc4F)CSC3=C2C#N)c1 (configuration not stated) | 45µM*
CC1=NN(C(C#N)c2cccc([N+](=O)[O-])c2)C(C)(C)C1 (configuration not stated) | 8%
Cc1cc2occ(CC(=O)NC3CCCc4ccccc43)c2cc1C (configuration not stated) | 8%
Cc1ccc(S(=O)(=O)N2CCOCC2)cc1C(=O)N(Cc1nnc(-c2ccccc2Cl)o1)C1CC1 | 6%
OCCSc1ncnc2c1oc1ccccc12 | -8%
CCOc1ccc2[nH]cc(S(=O)(=O)c3ccc(F)cc3)c(=O)c2c1 | -20%
COc1ccc(NC(=O)CCS(=O)(=O)c2ccc3c(c2)n(C)c(=O)c(=O)n3C)cc1Cl | -4%
Cn1c(Cn2cnc([N+](=O)[O-])n2)nnc1SCC(=O)Nc1ccccc1 | -8%
CCn1cc(CCCC(=O)NCc2ccccc2OC)c2ccccc21 | 9%
CCOc1ccc2c(c1)C(C)=CC(C)(C)N2S(=O)(=O)c1ccc(NC(C)=O)cc1 | -18%
CNC(=S)N(CCN(C)C)Cc1cc2cc3c(cc2[nH]c1=O)OCO3 | 14%
N#C/C(=N\Nc1cccc(C(F)(F)F)c1)C(=O)c1csc(-c2cccnc2)n1 | -16%
Nc1cc(N)cc(-c2nc3ccccc3o2)c1 | -13%
O=C(c1cc2sccc2n1Cc1ccc(F)cc1)N1CCCc2ccccc21 | 23%
FC(F)(F)c1cccc(Nc2nc3nonc3nc2Nc2ccc(Cl)cc2)c1 | -2%
COc1ccccc1N(CC(=O)N/N=C/c1ccccc1C(=O)O)S(C)(=O)=O | 17%
Cc1ccccc1OCCCCCNCCO | -12%
O=C(NCc1ccco1)c1cc(-c2ccco2)on1 | -13%
COc1ccc(NC(=O)N(C)C[C@H]2Oc3ccc(NS(=O)(=O)c4cn(C)cn4)cc3C(=O)N([C@H](C)CO)C[C@@H]2C)cc1 | -1%
Cc1nnc(SCc2cn3ccsc3n2)n(N)c1=O | 11%
CCC1Nc2ncnc(N3CCN(c4ccccc4)CC3)c2N(Cc2ccc(OC)cc2)C1=O (configuration not stated) | 20%
CCOc1ccc(N=C2SCCCN2C(=O)c2c(CC)noc2C)cc1 | -4%
O=[N+]([O-])c1ccc(-n2nnnc2-c2ccccc2)cc1 | 22µM*
C[C@H]1NS(=O)(=O)c2ccc(Br)cc2O[C@H]1c1ccccc1 | -14%
COc1cc(C2NC(=O)NC(O)(C(F)(F)F)C2C(=O)c2ccc(Cl)cc2)ccc1O (configuration not stated) | -20%
COc1ccc(C(=O)OCC(N)=O)cc1[N+](=O)[O-] | -11%
COc1cc2oc(=O)cc(-c3ccc(-c4ccc(O)cc4)cc3)c2c(OC)c1OC | -14%&-10%
COC(=O)c1c(CSc2ccc(C)c(C)c2)noc1C(=O)NCc1ccc(OC)cc1 | 2%
COC(=O)C1(NC(=O)NC23CC4CC(CC(C4)C2)C3)CCCCC1 | -11%

Reformatted as tab-separated lines: entries from further up
SMILES	VDR inh
Cn1c(Cn2cnc([N+](=O)[O-])n2)nnc1SCC(=O)Nc1ccccc1	-8%
CCn1cc(CCCC(=O)NCc2ccccc2OC)c2ccccc21	9%

Further entries
SMILES | VDR inh
O=C(CN(Cc1ccccc1Cl)C(=O)Cn1nnc(-c2cccs2)n1)NCC1CCCO1 (configuration not stated) | 19%
Cc1ccsc1CNC1CCCCC1 | -16%
Cc1cccc(C)c1Nc1nnc(SCC(=O)NCCCN2CCCC2=O)s1 | -6%
O=C(O)C[C@H]1c2ccccc2S(=O)(=O)N1C1CCCCC1 | -17%
C[C@@H]1CCC(=O)N(C[C@@H](C)CC#N)CC1 | -4%
CC(=O)Nc1ccc(/C=N/Nc2nc3ccccc3s2)cc1 | -5%
CC(C)c1nc2ccc(C(=O)NC(C)c3ccccc3)cc2o1 (configuration not stated) | -2%
Cc1ccc(CSc2nc3ccccc3c(=O)n2C)cc1 | -7%
COc1ccc(OC)c(NC(=O)c2cccc(S(=O)(=O)N(Cc3ccccc3)c3ccccc3OC)c2)c1 | 3%
C/C(=C\c1ccc(C(=O)O)cc1)c1ccc2c(c1)C(C)(C)CCC2(C)C | -1%&-2%
O=C(Nc1ccncc1)Nc1cccc(Cl)c1 | 1%
Cc1ccc(CNC(=O)CCCCn2c(=O)c3ccccc3n(Cc3ccc(C)cc3)c2=O)cc1 | 3%
CSc1ccccc1C(=O)NCc1ccccc1 | 10%
CC(C)C(c1nnnn1C1CCCC1)N(C)C1CCCCC1 (configuration not stated) | 7%
COc1ccc(-c2nc3n(c(=O)c2C#N)CCS3)cc1OC | 5%
Nc1nc(CN2CCC(Cc3ccccc3)CC2)nc(Nc2ccccc2)n1 | -7%
O=C(Nc1ncn[nH]1)c1ccc(S(=O)(=O)N2CCOCC2)cc1 | -18%
Cc1cccc(NC(=O)CC2CCC2)c1 | 24%
COc1ccccc1OCC(O)CN1CCN(C(=O)c2ccccc2)CC1 (configuration not stated) | -26%
COCCNC(=O)CCc1ccc(S(=O)(=O)Nc2ccc(C)cc2)cc1 | -13%
CN(C(=O)C1CCCC1)C1CCS(=O)(=O)C1 (configuration not stated) | -15%
COc1ccc(-c2cc(-c3ccc(F)cc3)nc(N3CCN(C)CC3)n2)cc1 | -7%
Cc1ccc([N+](=O)[O-])cc1N=C(c1cccc(Br)c1)N1CCOCC1 | -3%
CC(Sc1nc(-c2ccccc2)cc(C(F)(F)F)n1)C(=O)N1CCCCC1 (configuration not stated) | -8%
O=C(CSc1nccc(=O)[nH]1)NCc1ccc2c(c1)OCO2 | 2%
CCOC(=O)CNC(=S)N(Cc1ccccc1F)C1CCCCC1 | -7%
C=CCN=C1S/C(=C/c2cccc([N+](=O)[O-])c2)C(=O)N1CC=C | -21%
COc1ccc(NC(=O)N2CCCc3ccccc32)cc1 | 6%
O=C(c1ccc(Cl)cc1)N1CCN(c2ccc([N+](=O)[O-])c3ncccc23)CC1 | -5%
O=C(CSc1nnc(-c2ccc3c(c2)OCO3)n1-c1ccccc1)c1ccccc1 | -21%

Two consecutive compounds already listed:
SMILES | VDR inh
Nc1nc(CN2CCC(Cc3ccccc3)CC2)nc(Nc2ccccc2)n1 | -7%
O=C(Nc1ncn[nH]1)c1ccc(S(=O)(=O)N2CCOCC2)cc1 | -18%

Next section:
SMILES | VDR inh
C=C(C)CN(CC)C(=O)CC1C(=O)NCCN1Cc1c(F)cccc1Cl (configuration not stated) | 7%
Cc1cccc(C(=O)NCC(=O)N2CC(=O)Nc3ccccc32)c1 | -11%
Cc1cc(=O)c2ccccc2n1Cc1ccccc1 | 10%
CCCCNC(=O)C1CC(=O)N(C2CCCC2)C1 (configuration not stated) | -1%
COc1ccc(C(=O)NCCCNC(=O)c2cccnc2)cc1Br | -3%
O=C(COC(=O)c1ccc(Cl)c(S(=O)(=O)NCc2ccccc2)c1)NC1CC1 | -7%
CC(=O)C1=C(C)NC(SCC(N)=O)=C(C#N)C1CC(C)C (configuration not stated) | 79µM*
CCOc1ccc(C(C)C)cc1S(=O)(=O)Nc1cccc(-c2ccc(N3CCOCC3)nn2)c1 | 3%
O=C(COc1ccc(Cl)cc1Cl)NCCCNC(=O)c1cnccn1 | 2%
O=C1CC(N(CCc2ccccc2)C(=S)Nc2ccccc2)C(=O)N1c1ccccc1 (configuration not stated) | 17%
Cc1ccccc1NC(=O)Cc1nc(COC(=O)c2ccc(Cl)nc2)cs1 | 13%
O=C(CNC(=O)N1CC(=O)Nc2ccccc21)NCc1cccc(Cl)c1 | 12%
COc1cccc(OCc2cc(C(=O)NCCc3cccc(C)n3)no2)c1 | -1%
Cc1ccccc1NC(=O)Cc1nc(COC(=O)CCc2ccccc2)cs1 | -13%
C/C(=N\NC(=O)c1nn(C)cc1Br)c1cccc(NC(=O)c2ccncc2)c1 | ?
CC(Oc1ccc(F)cc1)C(=O)Nc1ccc2ccccc2c1 (configuration not stated) | 14%
Cc1ccc(NC(=O)CSc2nc3ncc(Br)cc3[nH]2)cc1C | -6%
O=C(CCc1ccccc1)Nc1ccccc1C(F)(F)F | -1%
COc1ccc(CN2CCC(=O)N([C@H](CO)c3ccccc3)CC2)cc1OC | -5%
CCc1cc2c(=O)n(-c3ccc(C)cc3)cnc2s1 | -1%
O=C(NC(=S)NCc1ccc(F)cc1)c1ccccc1 | -4%
COc1cccc(C(=O)N/N=c2/oc3ccccc3cc2C(N)=O)c1 | 23%
Cc1ccc(C(C(=O)NC2CCCC2)N(Cc2ccc(F)cc2)C(=O)c2snc(C(N)=O)c2N)o1 (configuration not stated) | -20%
COC(=O)c1ccccc1NC(=O)Cn1c(CCC(=O)O)ccc1-c1ccc(C)cc1 | 3%
CCOC(=O)N1CCc2c(sc3ncn(Cc4ccc(F)cc4)c(=O)c23)C1 | 7%
Cc1ccc(S(=O)(=O)Nc2ccc3cn[nH]c3c2)c(C)c1 | -14%
O=C(NCc1ccc(Cl)cc1)c1ccc2c(=O)n(CC3CCCO3)c(=S)[nH]c2c1 (configuration not stated) | 28%
CCOC(=O)c1c(NC(=O)CSc2nnc(CNc3ccc(F)cc3)o2)sc(C(C)=O)c1C | 5%
COc1ccc(S(=O)(=O)CCC(=O)NCc2ccc(C)o2)cc1 | ?
Cc1nc(C)n(CC(=O)N2CCCC(C(=O)c3ccc(Cl)cc3C)C2)n1 (configuration not stated) | -15%
Cc1cc2c3c([nH]c2cc1S(=O)(=O)N1CCC2(CC1)OCCO2)CCCC3=O | -10%
Cn1c2c(c(=O)n(C)c1=O)C(NS(=O)(=O)c1ccc(Cl)cc1)(C(F)(F)F)C(=O)N2 (configuration not stated) | -1%
O=C(O)CCCC(=O)Nc1ccccc1Oc1ccccc1 | -15%
CCN1CCc2c(sc(NC(=O)c3ccc(S(=O)(=O)N4CC(C)OC(C)C4)cc3)c2C(N)=O)C1 (configuration not stated) | 40%[activator]
CCc1ccc(CN2C(=O)CCC2(C)C(=O)NC2CCCC2)cc1 (configuration not stated) | -7%
Cc1cc(NC(=O)CC2(CC(=O)O)CCCC2)n(C)n1 | -25%
CC(C)=CCN1CCN(Cc2ccc(Sc3nncn3C)o2)CC1CCO (configuration not stated) | -14%
CC[C@]12c3[nH]c4cc(-c5ccco5)ccc4c3CCN1C(=O)[C@@H](CC(=O)NC/C=C(\C)CCC=C(C)C)C[C@@H]2C(=O)N1CCN(C(=O)c2ccco2)CC1 | -26%
O=C(N/N=C\c1ccc(Cl)s1)c1cccs1 | -3%
Cc1c(Cl)c([N+](=O)[O-])nn1CCCC(=O)N1CCN(c2ccccc2)CC1 | 12%
N#CC1(Cc2ccccc2Cl)c2ccccc2C=CN1C(=O)c1ccccc1 (configuration not stated) | -18%
O=C(CCOc1ccccc1)N(Cc1cccnc1)c1nc2ccc(Cl)cc2s1 | 1%
O=C(CN1CCN(S(=O)(=O)N2CCCCC2)CC1)Nc1ccc(Cl)c(Cl)c1 | 7%
COc1ccc(NC(=S)Nc2ccccc2SC)c(OC)c1 | -18%
CCCCOC(=O)c1ccc(Nc2ncnc3nc[nH]c23)cc1 | ?
O=C1CCCN2N=C(SCC(=O)Nc3cccc(C(F)(F)F)c3)SC2=N1 | 5%
Cc1ccccc1CN(C)C(=O)c1ccc2ccccc2n1 | 3%
CCc1nc2c(sc3nc4c(cc32)COC(C)(C)C4)c(=O)n1Cc1ccco1 | ?

VDR inh, what is marked active above.
SMILES | VDR inh
COc1cccc(C2CC(=O)N3CN(c4ccccc4F)CSC3=C2C#N)c1 (configuration not stated) | 45µM*
O=[N+]([O-])c1ccc(-n2nnnc2-c2ccccc2)cc1 | 22µM*
CC(=O)C1=C(C)NC(SCC(N)=O)=C(C#N)C1CC(C)C (configuration not stated) | 79µM*

Five entries already listed, sorted by the number in VDR inh, rising.
SMILES | VDR inh
N#CC1(Cc2ccccc2Cl)c2ccccc2C=CN1C(=O)c1ccccc1 (configuration not stated) | -18%
O=C(O)CCCC(=O)Nc1ccccc1Oc1ccccc1 | -15%
CCc1ccc(CN2C(=O)CCC2(C)C(=O)NC2CCCC2)cc1 (configuration not stated) | -7%
O=C(N/N=C\c1ccc(Cl)s1)c1cccs1 | -3%
O=C(CCOc1ccccc1)N(Cc1cccnc1)c1nc2ccc(Cl)cc2s1 | 1%
